Screens (PubChem BioAssay)
Proteasome disasm = blocks ATP-dependent breakdown of the yeast 26S proteasome. inhibition of disassembly, % (test concentration not listed). AID 751. actives 0.2% (n = 24,000). anti-FLAG beads, GFP-proteasome disassembly, flow cytometry;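 active means above 40%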;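 further: plate controls were ATP control with full disassembly for no effect and ATP-gamma-S intact proteasomes for full effect; higher percent means more bead fluorescence retained so stronger block of disassembly; stock transfer was 100 nL into about 10 µL; wells with too few beads may also be inconclusive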
VCAM-1 rise = enhancers of VCAM-1 display on endothelial cells, cell-based, plate reader, pooled HUVEC, TNFa stimulus (AID 455) | HUVEC TNFa-induced VCAM-1 immunofluorescence, plate reader; numbers were filed only for top-ranked candidate wells | augmentation, % at 5 µM | actives 0.2% (n = 10,000);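 active means a compound raising TNF-alpha-driven VCAM-1 surface staining, with its hit status upheld on visual or statistical review; inactive means the rest, including hits rejected on review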;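 further: 0% = TNFa with vehicle and 100% = strongest image-checked hit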
The depositor's hits bear a star; i = inactive; . = no result given; & = joins results of further samples. A portion of the library; rates above refer to the full screens.

Order of results – Proteasome disasm | VCAM-1 rise
COC(=O)c1nnn(CC(=O)Nc2cccc(Cl)c2)c1C(=O)OC
 : 7.8 | .
Cc1ccc(Cn2c(C(=O)NCCCN3CCOCC3)cc3sccc32)cc1
 : 1.7 | i
Cc1cc(C)n2nnnc2c1C#N
 : -0.3 | .
CCc1nnc(SCc2cn3c(C)cc(C)nc3n2)n1N
 : -5.7 | i
CCc1cccc2c(=O)c(C(=O)NCCN3CCOCC3)c[nH]c12
 : 1.2 | i
COc1ccc(NC(=O)N2CCC(c3nc(-c4cccs4)no3)CC2)cc1
 : 1.6 | i
COc1ccc(NC(=O)c2ccc3c(=O)n(Cc4ccco4)c(=S)[nH]c3c2)c(OC)c1
 : -0.1 | .
COC(=O)C(CCCCNC(=O)OCc1ccccc1)NC(=O)CN (configuration not stated)
 : -1.2 | i
O=C(Nc1nc(-c2ccc(S(=O)(=O)N3CCCC3)cc2)cs1)C1COc2ccccc2O1 (configuration not stated)
 : 1.3 | i
COc1c(N)c2ccccc2[nH]c1=O
 : 1.1 | .
CCN(CC)C(=O)CN(C)S(=O)(=O)c1cccc2nsnc12
 : 0.3 | .
CCOC(=O)c1c(NC(=O)Cn2c(C)nc3ccccc32)sc2c1CCC2
 : -3.3 | i
O=C(CSc1nnc(-c2ccc3c(c2)OCCO3)o1)NC1CCCCC1
 : 0.3 | .
CCCC1CCC(C(=O)Nn2cnc3ccccc3c2=O)CC1 (configuration not stated)
 : 0.2 | i
CC(=O)Nc1ccccc1-c1nc2ccc(C(=O)N3CCN(c4ccccc4)CC3)cc2[nH]c1=O
 : 2.0 | i
CCN1CCN(c2cc(C)c3cc(NC(=O)c4cnccn4)ccc3n2)CC1
 : 0.7 | .
Cc1ccccc1NC(=O)C1CC(=O)N(c2ccccc2F)C1 (configuration not stated)
 : -1.1 | i
O=C(NCc1cccs1)c1noc2c1CCCC2
 : 0.8 | .
C=CCSc1nnc(-c2ccc(Cl)cc2Cl)o1
 : 4.0 | i
O=C(COc1ccccc1F)NC1CC1
 : -1.1 | i

Profiles from above. Order of values: Proteasome disasm, VCAM-1 rise
CCN1CCN(c2cc(C)c3cc(NC(=O)c4cnccn4)ccc3n2)CC1 is entered as 0.7, .
O=C(CSc1nnc(-c2ccc3c(c2)OCCO3)o1)NC1CCCCC1 is entered as 0.3, .
COc1c(N)c2ccccc2[nH]c1=O is entered as 1.1, .

Next part:
Order of results – Proteasome disasm | VCAM-1 rise
CCCCN(CCCC)C(=O)CN(C)S(=O)(=O)c1ccc2c(c1)n(C)c(=O)c(=O)n2C
 : -1.6 | i
O=C(O)CSc1nnc(Cn2c(=O)sc3ccccc32)n1-c1cccc(Cl)c1
 : 1.9 | .
O=C(CNC(=O)c1ccccc1C(=O)O)c1ccccc1
 : 0.7 | i
Cc1ccc(CCNC(=O)C2CCC(=O)N2Cc2cccnc2)cc1 (configuration not stated)
 : -0.7 | .
O=C(Cn1cnc2c(nnn2Cc2ccc(F)cc2)c1=O)N1CCCCC1
 : -1.1 | .
O=C(CCCn1c(=S)[nH]c2cc3c(cc2c1=O)OCO3)N1CCN(c2ccccc2F)CC1
 : -0.8 | i
COc1cc(OC)c(C2C3=C(CCCC3=O)Nc3nc4ccccc4n32)cc1OC (configuration not stated)
 : -0.6 | .
COc1cccc(-c2cc(C(F)(F)F)n3ncc(C(=O)O)c3n2)c1
 : -0.1 | i
CCc1cc(C)cc(OCCNC(=O)c2ncn[nH]2)c1
 : 1.0 | i
CCn1c(CC(=O)Nc2cccc(OC)c2)nnc1SCC(=O)Nc1nccs1
 : 3.0 | i
CCOC(=O)c1[nH]c(C)c(C(=O)NCc2ccc(OC)cc2)c1C
 : 0.4 | .
O=C(NCCCN1CCOCC1)c1cc(-c2ccc(F)cc2)on1
 : 1.3 | .
Cc1cc(C)cc(-n2ccnc2SCC(=O)Nc2ccc3c(c2)OCCO3)c1
 : 0.8 | i
CCOc1ccc(-c2nnc3ccc(SCc4ccc(C(=O)OC)o4)nn23)cc1
 : 0.1 | .
O=C(NC1CCCCC1)N1CCC(n2c(=O)[nH]c3ccccc32)CC1
 : 3.3 | .
Cc1cc(NC(=O)CSc2nnc(Cn3c(=O)sc4ccccc43)n2-c2ccccc2C)no1
 : -8.8 | .
CCC(=O)N1c2ccc(S(=O)(=O)CCC(=O)NC3CCCC3)cc2CC1C (configuration not stated)
 : -0.6 | .
O=C(NCc1ccco1)c1cccn2c(=O)c3cc(Br)ccc3nc12
 : -0.2 | .
COc1ccc(OC)c(/C=c2\sc3nc(-c4cccs4)nn3c2=O)c1
 : 4.3 | .
COc1ccc(CCNC(=O)CCN2C(=O)COc3ccc(C)cc32)cc1OC
 : 2.0 | .
CCc1ccccc1N1CC23C=CC(O2)C(C(=O)OCC(C)C)C3C1=O (configuration not stated)
 : -0.5 | .
COc1ccccc1NC(=O)C1CCCN(S(=O)(=O)c2cnc[nH]2)C1 (configuration not stated)
 : -0.5 | .
C[C@]12CCC(=O)C=C1CC[C@@H]1[C@@H]2[C@@H](O)C[C@@]2(C)[C@H]1CC[C@]2(O)C(=O)COC(=O)CCC(=O)O
 : -0.1&0.3 | i
COc1cc(CCC(=O)N2CCN(c3ccc(N4CCOCC4)nn3)CC2)cc(OC)c1OC
 : 3.0 | .
COC(=O)C1CCN(C(=O)c2sc3nc(-c4ccc(F)cc4)cn3c2C)CC1
 : 0.9 | i
O=C(CNS(=O)(=O)c1cccc2nonc12)NCc1ccc(F)cc1
 : -0.1 | .
Cc1onc(-c2ccccc2)c1C(=O)Nc1nnc(N(C)Cc2ccccc2)s1
 : 0.4 | .
Cc1nc2ccccc2c2oc(C(=O)NCCCN3CCC(C)CC3)cc12
 : -0.8 | .
O=S(=O)(c1ccc(S(=O)(=O)N2CCN3CCCC3C2)cc1)N1CCCC1 (configuration not stated)
 : -0.3 | i
CC(C)(C)Nc1nc(OCC(F)(F)F)nc(OCC(F)(F)F)n1
 : 4.3 | i
COC(=O)c1ccc2c(c1)N(Cc1cc(C)ccc1C)C(=O)c1ccccc1S2=O (configuration not stated)
 : -0.2 | .
O=C1C2C3C=CC(C3)C2C(=O)N1c1cccc(N2C(=O)C3C4C=CC(C4)C3C2=O)n1 (configuration not stated)
 : 0.1 | i
CC(=O)Nc1c(O)[nH]c2ccccc12
 : 2.4 | i
CN1CCN(CCCNC(=O)c2cn(C3CCCCC3)c(=O)c3c2c2ccccc2n3C)CC1
 : 3.0 | .
NS(=O)(=O)c1ccc(NC(=O)CSc2nnc(Cc3cccs3)n2-c2ccccc2)cc1
 : 0.6 | i
CC(C)OC(=O)c1cc2ccccc2oc1=O
 : 0.7 | .
COc1ccc(S(=O)(=O)n2nc(OC(=O)c3cccs3)cc2N)cc1
 : -0.3 | .
Cc1ccc(CNC(=O)C2CNc3cc(C)ccc3O2)cc1 (configuration not stated)
 : 1.0 | .
O=S(=O)(Nc1ccc2c(c1)OCCO2)c1cnc[nH]1
 : -2.2 | .
c1cc2c(cc1C1CCCN1)OCCCO2 (configuration not stated)
 : 3.1 | i
COc1ccc(N(CC(=O)NC2CCCCCC2)S(=O)(=O)c2c(C)nn(C)c2C)cc1
 : -3.3 | .
CCOCCCNC(=O)c1c(C)[nH]c(C(=O)OCC)c1C
 : 0.5 | .
Brc1ccc2ncnc(Nc3ccc(N4CCOCC4)cc3)c2c1
 : 1.5 | i
CCC(C(=O)N1CCOCC1)n1c(C(=O)OC)cc2occc21 (configuration not stated)
 : 0.3 | .
COC(=O)Nc1ccc(S(=O)(=O)N(C)CC(F)(F)C(F)F)cc1
 : -2.4 | i
COc1cccc(-n2c(Cc3cc(=O)[nH]c(=O)[nH]3)nnc2SCC(=O)N2CCCCCC2)c1
 : -0.1 | .
CC(=O)c1cn(CC(=O)NCc2ccc3c(c2)OCO3)c2ccccc12
 : -0.3 | i
CCOc1ccccc1C(=O)N1CCN(c2cccc(Cl)c2)CC1
 : 0.5 | i
c1ccc(Cc2ccc(OCCn3cncn3)cc2)cc1
 : -0.5 | i
CCN(CCNC(=O)C1CCN(c2nnc(-n3cccc3)s2)CC1)c1ccccc1
 : 2.6 | .

Following part.
Order of results – Proteasome disasm | VCAM-1 rise
CC(C)c1ccc(C(O)c2cnc(C(C)C)n2C)cc1 (configuration not stated)
 : -0.5 | i
CCCC(=O)Nc1cccc(NC(=O)CN2CCN(c3ccccc3OC)CC2)c1
 : 1.1 | i
O=C(NCC(c1cccnc1)N1CCOCC1)c1ccco1 (configuration not stated)
 : 4.4 | i
O=C(Cn1cnc2c(nnn2-c2ccc(F)cc2)c1=O)N1CCCc2ccccc21
 : 0.1 | i
CCOc1cc2[nH]c(=O)n(CCCCC(=O)NC3CCCCCC3)c(=O)c2cc1OCC
 : -1.0 | .
Cc1c(C(=O)NCc2ccc3c(c2)OCO3)oc2ccc(S(=O)(=O)N3CCC(C)CC3)cc12
 : 0.6 | .
O=C(CCS(=O)(=O)c1cccc2nsnc12)N1CC(=O)N(CCc2ccccc2)C(=O)C1
 : -0.8 | .
CCCCNC(=O)c1c(O)c2cccc3c2n(c1=O)CCC3
 : -0.9 | .
COc1ccc(C(NC(=O)CNC(C)=O)C(=O)Nc2ccc3c(c2)OCCO3)cc1 (configuration not stated)
 : 0.5 | .
COc1ccc(CNn2c(C)nc3ccccc3c2=O)cc1
 : -0.1 | .
Cn1c(=O)[nH]c(=O)c2c1nc(Br)n2Cc1ccccc1F
 : -0.3 | i
COc1ccc(OC)c(N2C(N)=C(C#N)C(c3ccc(OC)c(O)c3)C3=C2CC(C)(C)CC3=O)c1 (configuration not stated)
 : 0.0 | .
O=C1c2oc3ccccc3c(=O)c2C(c2cccnc2)N1Cc1ccco1 (configuration not stated)
 : -1.8 | i
COc1ccc(C)cc1NC(=O)CN1CCN(c2ccccc2F)CC1
 : 0.8 | .
CNC(=O)CC(C(=O)O)c1ccc(OCC(C)C)cc1 (configuration not stated)
 : -1.4 | i
Cc1c(C(=O)O)oc2ccc(S(=O)(=O)N(CC(C)C)CC(C)C)cc12
 : -4.4 | .
O=C(CCS(=O)(=O)c1cccs1)N1CCN(c2ccc(F)cc2)CC1
 : 0.3 | .
O=C(O)CSCNC(=O)CC12CC3CC(CC(C3)C1)C2
 : -0.1 | .
CCOC(=O)N1CCC(NC(=O)c2cc(C(=O)NCc3cccc(Cl)c3)ccc2CO)CC1
 : -1.9 | .
CCOC(=O)C1CCCN(c2c(N3CCc4ccccc4C3)c(=O)c2=O)C1 (configuration not stated)
 : -0.8 | .
CNC(=O)c1ccc2nc(NC(C)=O)sc2c1
 : 3.4 | i
CCOc1ccccc1NC(=O)Cn1nnc(C(=O)Nc2ccc(C)cc2)c1N
 : 0.4 | .
COc1cc(NC(=O)C2CCCN2C(=O)OCc2ccccc2)cc(OC)c1 (configuration not stated)
 : 0.1 | .
COc1ccc(OC)c(Nc2cc(C(=O)NCCCN3CCOCC3)c3ccccc3n2)c1
 : -2.1 | .
O=C(NCCC1=CCCCC1)c1ccc2c(=O)n3c(nc2c1)CCCCC3
 : 0.7 | .
CCN(CC)S(=O)(=O)c1ccc2oc(C(=O)NCc3ccc(F)cc3)c(C)c2c1
 : 1.4 | .
COc1ccc(S(=O)(=O)N(C)CC(=O)N2CCCCC2)cc1Cl
 : -0.7 | i
Cn1c(C(=O)N2CCC(C(N)=O)CC2)cc2c(=O)n(C)c3ccccc3c21
 : 0.1 | .
O=C(NCc1ccco1)C1CCN(S(=O)(=O)N2CCOCC2)CC1
 : -0.5 | .
CCOc1ccc(OCc2cccc(C(=O)N3CCCC3)c2)cc1
 : 3.1 | i
COCCn1c(C)cc(C(=O)COC(=O)c2n[nH]c3ccccc23)c1C
 : 0.2 | i
O=C(O)c1ccn(Cn2cnc3ccccc32)n1
 : -0.7 | .
COc1ccc(C2=NO[C@@H]3C(=O)N(c4cccc(C)c4C)C(=O)[C@H]23)cc1OC
 : -5.0 | i
CC(C)(C)n1ncc2c(=O)n(CC(=O)Nc3ccc(Cl)cc3)cnc21
 : 0.1 | .
CC(C)Cn1c(N)c(C(=O)NCCN2CCOCC2)c2nc3ccccc3nc21
 : 4.2 | i
Cc1cc(C(F)(F)F)nc(NCc2cccnc2)n1
 : 17 | i
Cc1ccc(S(=O)(=O)c2c(C)nn(C(C)(C)C)c2OC(=O)c2ccc(Br)o2)cc1
 : 0.2 | .
Cc1ccc(NC(=O)Nc2cccs2)cc1
 : -2.2 | .
COc1cccc(-c2nn(C)c3sc(C(=O)N4CCN(c5ccccc5)CC4)cc23)c1
 : -1.2 | .
COc1ccc(/C(O)=C2\C(=O)C(=O)N(c3cc(C)on3)C2c2ccccc2OC)cc1 (configuration not stated)
 : -5.9 | i
COc1ccc(-c2noc(-c3cccc(OC)c3OC)n2)cc1OC
 : -0.1 | .
CCCCN(CCCC)CCCNC(=O)CC1Oc2ccc(C)cc2NC1=O (configuration not stated)
 : -0.5 | i
O=C(O)CCC(=O)Nc1ccc(N2CCOCC2)cc1
 : -1.5 | .
Cc1ccc(N2C(=O)Nc3ccc(Br)cc3C2(O)C(=O)NCCCN(C)C)cc1C (configuration not stated)
 : 0.7 | .
Cc1c(Cl)cccc1N1C(=O)c2ccccc2C1=O
 : -1.3 | i
O=C(NC1CCCCCCC1)C1CCN(S(=O)(=O)N2CCCC2)CC1
 : -1.5 | .
O=S(=O)(Nc1ncccn1)c1ccc(Nc2ncnc3ccccc23)cc1
 : -0.3 | i
O=C(CN1CCOCC1)NCC12CC3CC(CC(C3)C1)C2
 : 1.3 | .
